Source: PubChem BioAssay (ICCB-Longwood Screening Facility, Harvard Medical School)
HCMV UL50-53 inh – inhibitors of HCMV UL50-UL53 interaction, biochemical, HTRF; AID 1918969, 2023; 0.15% of 190,000 active; HCMV UL50-UL53 nuclear egress complex (human cytomegalovirus); inhibition, % (no concentration beside the values); normalized percent inhibition;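 active = both replicates at 50% or more, plus weaker picks with an unusually low signal ratio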;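 note: stock transfer was 100 nL into about 20 µL; 0% = negative control wells and 100% = wells with untagged competitor protein; inactives centre near -12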
Sa growth 42C – S. aureus growth inhibition at 42 and 30 °C, primary screen, LtaS inhibitor project, RN4220, two temperatures; OD600, 20 h, 42 °C; hits give low values; relative growth, % (no concentration beside the values); 0.53% of 170,000 active;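 active = growth at 42 °C up to 50% and 20 or more points under that at 30 °C, or under 10% at both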;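 note: 300 nL library stock went into each well; scaled to the means of positive and negative controls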
GIV Gai3 FP – inhibitors of GIV peptide binding to Galpha-i3, primary screen, biochemical, fluorescence polarization, FITC-GIV GBA peptide, rat Galphai3. Guanine nucleotide-binding protein G(i) subunit alpha-3 (Rattus norvegicus), P08753. 90 min; hits give low values; scaled: aluminum fluoride 0%, vehicle 100%. percent of control (FP), % (concentration not given with the values). 0.42% of 210,000 active;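 active = replicate mean at 85% of control or lower, very high polarization wells dropped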;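 note: wells of about 15 µL received 100 nL stock; the first replicate is given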
Target sequence (P08753 whole entry, looked up): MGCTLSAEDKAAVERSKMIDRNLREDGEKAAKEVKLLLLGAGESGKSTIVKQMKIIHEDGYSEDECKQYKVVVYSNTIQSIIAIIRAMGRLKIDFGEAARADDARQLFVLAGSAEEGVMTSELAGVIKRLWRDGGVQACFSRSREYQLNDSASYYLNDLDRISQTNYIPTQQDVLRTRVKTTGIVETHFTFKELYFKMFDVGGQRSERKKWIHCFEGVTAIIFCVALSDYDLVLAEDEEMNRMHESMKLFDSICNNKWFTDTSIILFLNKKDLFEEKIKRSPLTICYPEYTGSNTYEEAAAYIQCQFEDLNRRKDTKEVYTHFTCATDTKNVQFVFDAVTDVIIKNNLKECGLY
Sa growth 42C second temp – second read-out of Sa growth 42C, no call of its own (marks repeat the call); relative growth, %; measured here: growth at 30 °C;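 optical density after 20 h as mean of two plates; 100% = untreated growth and lower means inhibition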
Active calls of the source: *; · = not tested or not shown. Not a hit list (roughly 0.82% active in at least one column).

compound	HCMV UL50-53 inh	Sa growth 42C	Sa growth 42C second temp	GIV Gai3 FP
COc1ccc(C2NC(=O)NC(C)=C2C(=O)Nc2cc(C)cc(C)c2)c(OC)c1 (configuration not stated)	-22	118	99	103
Cc1ccc(CNC(=O)C(=O)NCC(c2ccco2)S(=O)(=O)c2ccc(C)cc2)cc1 (configuration not stated)	·	100	101	100
O=C1c2cccc3cccc(c23)C(=O)N1CC1CCN(S(=O)(=O)c2ccc(F)cc2)CC1	0	·	·	109
CC(=O)Nc1ccc(S(=O)(=O)N2CCC(C)CC2)cc1	-14	123	83	95
Cc1ccc(Cl)cc1NC(=O)CCn1c(=O)c2cccn2c2cccnc21	·	114	94	105
COc1ccc(OC)c(CCNC(=O)c2c3c(nc4ccccc24)C(=O)N(C2CCCCC2)C3)c1	·	85	83	100
O=C(NCC1CCN(C2CCCC2)C1)c1ccc(N2CCCS2(=O)=O)cc1 (configuration not stated)	-18	104	82	103
N#Cc1ccc(N2C(=O)C3=C(SCCS3)C2=O)cc1	-16	116	85	105
CN1C(=O)/C(=C\C=C\c2ccccc2Cl)SC1=S	-9	101	83	·
COc1ccc(C2=NC(C(F)(F)F)(C(F)(F)F)N=C(c3ccccc3C)O2)cc1	·	85	92	98
Cc1cc2oc(=O)cc(CCl)c2cc1C	-29	97	85	·
COc1ccc(C2C(C(=O)NCCCN3CCC(C)CC3)c3ccccc3C(=O)N2C)cc1 (configuration not stated)	·	105	92	99
CCCCNS(=O)(=O)c1cccc2nonc12	-86	·	·	106
CCOC(=O)c1cccc(NC(=O)c2cc3cc4ccc(C)cc4nc3o2)c1	0	106	91	106
CCOC(=O)c1c(NC(=O)c2ccc(OC)cc2)sc(C(=O)Nc2ccc(C)c(Cl)c2)c1C	-10	·	·	102

The results go on:
compound	HCMV UL50-53 inh	Sa growth 42C	Sa growth 42C second temp	GIV Gai3 FP
O=S(=O)(NC1CCCC1)c1ccc(-n2cccn2)cc1	·	82	87	100
CCc1ccc(Nc2nc(N)nc(CSc3nc4ccccc4s3)n2)cc1	-33	109	94	104
CCC(C)NC(=O)Nc1cc2c(cc1N1CCOCC1)n(C)c(=O)n2C (configuration not stated)	-15	·	·	99
COc1ccc(-c2ocnc2C(=O)NCCc2ccccc2)cc1	-21	95	79	109
O=C1CN(C(=O)CSc2nnc(-c3ccccc3)n2-c2ccccc2)c2ccccc2N1	-6	82	96	·
CC1(C)CC(=O)C2=C(C1)OC(N)=C(C#N)C21C(=O)Nc2ccc(Br)cc21 (configuration not stated)	-15	·	·	108
CCCCN(C1CCN(C(C)=O)CC1)S(=O)(=O)c1csc(C(N)=O)c1	10	95	103	106
CCN(CC)c1cc(C)c2cc(NC(=O)c3ccco3)ccc2n1	10	95	101	97
Cc1nc2ccccn2c1/C(O)=C1\C(=O)C(=O)N(CCCN2CCOCC2)C1c1cccc(F)c1 (configuration not stated)	-7	104	108	102
O=C(O)C(Cc1ccc(O)cc1)NC1CCS(=O)(=O)C1 (configuration not stated)	-22	93	81	100
CCc1cccc(NC(=O)CSc2nnc(-c3cc4occc4n3C)n2-c2ccccc2C)c1	·	127	104	103
CCN1CCCC1CNC(=O)c1ccc2c(=O)n3c(nc2c1)CCCCC3 (configuration not stated)	·	95	86	103
O=c1[nH]c(=O)n([C@H]2CC(O)[C@@H](CO)O2)cc1Br (some centres not stated)	-26	86	84	98
CCCCc1nc2ccccc2n2c(-c3ccc(OC)cc3)c3c(=O)n(C)c(=O)n(C)c3c12	-27	104	86	104
Cc1ccccc1Cn1c(=O)n(CCC(=O)NCCc2ccccc2)c(=O)c2ccccc21	·	108	95	104

4 compounds from above, arranged by molecular weight, highest first.
compound	HCMV UL50-53 inh	Sa growth 42C	Sa growth 42C second temp	GIV Gai3 FP
COc1ccc(OC)c(CCNC(=O)c2c3c(nc4ccccc24)C(=O)N(C2CCCCC2)C3)c1	·	85	83	100
CCCCc1nc2ccccc2n2c(-c3ccc(OC)cc3)c3c(=O)n(C)c(=O)n(C)c3c12	-27	104	86	104
Cc1ccc(CNC(=O)C(=O)NCC(c2ccco2)S(=O)(=O)c2ccc(C)cc2)cc1 (configuration not stated)	·	100	101	100
CC(=O)Nc1ccc(S(=O)(=O)N2CCC(C)CC2)cc1	-14	123	83	95

Remaining list, next part:
compound	HCMV UL50-53 inh	Sa growth 42C	Sa growth 42C second temp	GIV Gai3 FP
O=C(c1ccc(F)cc1)C1CCN(S(=O)(=O)c2ccc(F)cc2)CC1	-18	101	83	99
CCCCN(C)c1nnc(NC(=O)Nc2ccc(CC)cc2)s1	-16	97	87	103
COC(=O)c1ccc(CN(c2ccc(OC)cc2)S(=O)(=O)c2cccc(C)c2)o1	-19	104	98	·
COc1cccc(NC(=O)CCC(=O)N2Cc3ccccc3Oc3ncccc32)c1	·	115	91	105
COc1ccccc1-n1c(-c2ccc(F)cc2)coc1=O	-22	112	81	96
CCOC(=O)NNc1ncc(C(F)(F)F)cc1Cl	5	106	101	102
S=c1[nH]nc(-c2ccccc2)n1/N=C/C=C/c1ccco1	-63	84	81	104
Cc1ccc2nc(Nc3ccccc3)nc(-c3ccccc3)c2c1	·	90	64	99
O=C(CSc1ncc(CO)n1Cc1ccc(F)cc1)NCc1ccco1	·	105	98	103
Cn1cc(/C=C2\SC(=NC3CCCCC3)NC2=O)cn1	-78	108	98	·
CN(C)C1(CNC(=O)COc2ccc3oc4c(c3c2)CCCC4)CCCCC1	9	119	96	·
CCN(CC)CCNC(=O)c1ccc(CSc2nc3cccnc3n2Cc2ccccc2)cc1	-19	·	·	106
CN1CCC(OC(=O)c2ccc(F)cc2)CC1	-11	108	82	·
O=C(c1ccccc1)c1ccc(C(=O)c2ccccc2)cc1	-4	108	88	·
O=C(c1cc2ccccc2[nH]1)N1CCN(c2nc3cc(Br)ccc3n3cccc23)CC1	-6	·	·	107

Other compounds:
compound	HCMV UL50-53 inh	Sa growth 42C	Sa growth 42C second temp	GIV Gai3 FP
Cc1[nH]nc2c1C(c1ccc(F)cc1F)CC(=O)N2 (configuration not stated)	-21	·	·	100
CCOc1ccccc1NC(=O)CSc1nc2c(oc3ccccc32)c(=O)n1-c1ccc(F)cc1	-18	121	94	106
Cc1cccc(N2CCN(C(=O)CN3C(=O)CCn4nc(-c5cn(C)c6ccccc56)cc43)CC2C)c1 (configuration not stated)	-3	·	·	102
NC(=O)c1c(NC(=O)CSc2nc3ccccc3o2)sc2c1CCC2	-4	·	·	104
N#CCNC(=O)c1ccc(-c2ccccc2)cc1	-12	81	74	·
O=C(NC(=S)N1CCN(Cc2ccccc2)CC1)c1ccccc1	15	125	91	108
NS(=O)(=O)c1ccc(N/C=C2/CCCCC2=O)cc1	-23	91	102	108
OC1C2C3CC4C2C(O)C2C1C3C42 (configuration not stated)	-7	83	95	·
Cc1cccc(-c2nc(SCC(=O)Nc3cc(C)on3)c3c(=O)n(C)c(=O)n(C)c3n2)c1	·	81	91	101
CC(C)c1ccc(NC(=O)c2ccc(CN3CC(=O)N4CCCCC4C3=O)cc2)cc1 (configuration not stated)	·	116	83	111
COc1cccc(C2NC(=O)NC3=C2CCc2ccccc23)c1 (configuration not stated)	-13	87	100	108
Cc1ccc(Cn2ccn(CC(=O)Nc3ccccc3C(F)(F)F)c(=O)c2=O)cc1	8	95	103	107
Cc1cccc(C)c1-n1ncc(C(=O)NCc2ccc3c(c2)OCO3)c1C1CCN(C(=O)OC(C)(C)C)CC1	·	105	102	110
COc1ccc(Cl)cc1S(=O)(=O)N1CCN(C23CC4CC(CC(C4)C2)C3)CC1	-3	93	88	·
CCOc1nc2cccnc2n(CC(=O)NCCOC)c1=O	-30	·	·	101

New compounds follow
compound	HCMV UL50-53 inh	Sa growth 42C	Sa growth 42C second temp	GIV Gai3 FP
O=C(CCC1=NS(=O)(=O)c2ccccc2N1)NC1CCCCCCC1	·	66	74	99
CC(/C=N/N1CCOCC1)=C\c1ccccc1	-24	98	98	·
COc1ccc(/C(N)=N/OC(=O)c2c(-c3ccccc3Cl)noc2C)cc1	-11	91	91	99
CN(C)c1nc(N)c(C(=O)N=C(N)N)nc1Cl	-90	·	·	102
CN(C)S(=O)(=O)N1CCC(c2nn(-c3ccccc3)c(=O)o2)CC1	-13	83	79	100
Cc1cc(=O)n2[nH]c(-c3ccccc3)cc2n1	4	122	83	109
O=C1CN(CC(=O)Nc2ccc(C(F)(F)F)cc2)CCN1	-9	102	96	·
CSc1cc(-c2cccs2)nc(-c2ccc(Cl)cc2)n1	-1	119	89	109
NCCCS(=O)(=O)O	-64	·	·	111
c1csc(-c2nnc(CSc3nnc(-c4ccc5c(c4)OCO5)o3)o2)c1	-1	107	94	·
CCSC1(SCC)N=C(N)C2(C#N)C(c3ccccc3)NC(C)=CC12C#N (configuration not stated)	-16	103	85	101
CCN(CC)C(=O)c1sc(NC(=O)c2cc(-c3ccc(Cl)c(Cl)c3)nc3ccccc23)c(C(=O)OC)c1C	0	·	·	106
Cc1[nH]c(C)c(S(=O)(=O)N2CCC(C(=O)NC3CCCC3)CC2)c1C(=O)N1CCCC1	23	·	·	102
CC(C)(C)C1=NOC(O)(C(F)(F)F)C1 (configuration not stated)	·	100	81	94
O=C(CC(c1ccccc1)c1ccccc1)N1CCc2ccccc2C1	·	82	71	100

Next part:
compound	HCMV UL50-53 inh	Sa growth 42C	Sa growth 42C second temp	GIV Gai3 FP
Cc1ccc2c3c(ccc2n1)NC1=C(C(=O)CCC1)C3c1ccc(O)cc1 (configuration not stated)	-8	91	87	·
O=c1sc2ccccc2n1CCCOc1ccccc1	0	96	84	103
CC12CCC(C/C1=N/OC(=O)c1cc3ccccc3o1)C2(C)C (configuration not stated)	-4	102	97	102
COc1cccc(NC(=O)c2c(-c3cccnc3)noc2C)c1	-15	·	·	107
CSCc1nnc(NC(=O)c2ccc(S(=O)(=O)N3CCCCC3C)cc2)o1 (configuration not stated)	0	0.2*	-0.1*	98
Cn1c2c(c3ccccc31)CC/C2=N\O	-30	110	90	105
NCCCCOc1ccc(F)cc1	-5	88	94	·
CC(=O)OCC(=O)NCc1ccccc1Cl	-19	96	95	·
Cc1c(C#N)c(N)n(CCN2CCOCC2)c1C	-34	78	91	·
CCCCC1=NN(C(=O)c2ccccc2)C(O)(C(F)(F)F)C1 (configuration not stated)	·	89	85	98
CC(C)Cn1cc(NC(=O)NCc2ccccc2Cl)c2ccccc2c1=O	·	84	78	97
COc1ccc(C(O)C23CC4CC(CC(C4)C2)C3)cc1 (configuration not stated)	-6	77	95	·
O=C1c2ccccc2C(=O)C2(O)OCCOC12O (configuration not stated)	106*	93	92	51*
CC(=O)[C@H]1CCC2C3CC=C4C[C@@H](OS(=O)(=O)O)CC[C@]4(C)C3CC[C@@]21C (some centres not stated)	13	·	·	103
O=C(CSc1c2c(nc3ccc(Cl)cc13)CCCC2)NC1CC1	1	93	104	111

Going on with the list.
compound	HCMV UL50-53 inh	Sa growth 42C	Sa growth 42C second temp	GIV Gai3 FP
COc1cc(/C=C2/SC(N)=NC2=O)ccc1OCc1ccc(Cl)cc1Cl	-13	·	·	104
CC(=O)N1CCc2c(sc3c2c(=O)n(-c2ccccc2)c(=O)n3Cc2cccc(C(F)(F)F)c2)C1	14	88	89	101
COC(=O)Cn1ncc2c3ccccc3n(C)c2c1=O	6	98	89	103
O=C(CSc1ccc(Br)cc1)NCCCc1ccccc1	12	96	110	·
COC(=O)C(C)NC(=O)C1CCCCC1 (configuration not stated)	4	75	87	·
O=C(NCCc1ccccc1)C1CCN(C(=O)N2CCOc3ccc(Cl)cc32)CC1	9	·	·	102
COc1cc(OC)c(NC(=O)C(CC(C)C)N2Cc3ccccc3C2=O)cc1Cl (configuration not stated)	·	98	77	101
COc1ccc(-c2cc3c(nn2)Nc2ccccc2S3)cc1	-14	77	68	103
Cc1c(C(=O)COC(=O)c2ccccc2Cl)sc2ccccc12	-10	101	90	102

Entries listed so far marked active in GIV Gai3 FP.
Compound	Sa growth 42C second temp	GIV Gai3 FP
O=C1c2ccccc2C(=O)C2(O)OCCOC12O (configuration not stated)	92	51*
